VACV mCherry inh: qHTS for Stage-Specific Inhibitors of Vaccinia Orthopoxvirus: mCherry Reporter Primary qHTS. Vaccinia virus mCherry reporter infection, fluorescence; about a quarter of the inactives have no number. AID 720579, 2013. actives 0.63% (n = 310,000). Potency, µM (series often up to 36.5 µM), inactives show at the highest dose activity change, negative = inhibition, actives largely listed as inhibitors; active = well fitted inhibition curve with a large enough effect; inconclusive = small, poorly fitted or top-dose-only effect; inactive = no such curve, though single readings can be large or run the other way; tested in A549 cells; note: nearly all actives have a fitted effect of over 35% in size; inactives centre near -10
VACV Venus inh: qHTS for Stage-Specific Inhibitors of Vaccinia Orthopoxvirus: Venus Reporter Primary qHTS | actives 0.46% (n = 330,000) | Potency, µM (top dose mostly 36.5 µM), inactives show at the highest dose activity change, negative = inhibition, hits mostly inhibitors | Vaccinia virus Venus reporter expression, fluorescence; active means well fitted inhibition curve with a large enough effect; inconclusive means small, poorly fitted or top-dose-only effect; inactive means no such curve, though single readings can be large or run the other way; tested in A549 cells; note: nearly all actives have a fitted effect of over 30% in size; inactives centre near -10
An asterisk follows results filed as active; i = inactive; ? = inconclusive; nt = not tested or not shown; & = joins results of further samples; [ ] = another dose, or the depositor's remark. % is set by controls: 0 for no effect and ±100 for the full control effect; potency is the fitted concentration of half-maximal effect.

SMILES | VACV mCherry inh | VACV Venus inh
COc1ccccc1N1CCN(S(=O)(=O)c2cc(-c3cc(C)no3)ccc2C(C)C)CC1 | -12% | -6%
O=C(Nc1ccccc1N1CCN(c2ccccc2)CC1)C1CCCCC1 | -12% | -4%
Cc1ccc2oc(=O)n(CC(=O)c3ccc(F)cc3)c2c1 | -3% | -10%
O=C(c1cc(-c2ccc(Cl)cc2Cl)on1)N1CCCC1 | 34%[activator] | 2%
COc1ccc(C2NC(=O)N(C)C3=C2C(=O)N(c2ccc(Br)cc2)C3)cc1 (configuration not stated) | -16% | -8%
O=C(COC(=O)C12CC3CC(CC(Cl)(C3)C1)C2)N1CCCCC1 | -12% | 0%
CCC(C)c1ccccc1NC(=O)c1cccc(-n2cnnn2)c1 (configuration not stated) | -27% | -21%
Cc1ccc(-c2cc3ccccc3nc2N2CCCC2)cc1 | nt | -2%
COc1ccccc1-c1ccc(C(=O)N(C)CC2COCCO2)c(N2CCN(c3ccccc3F)CC2)n1 (configuration not stated) | -7% | -11%
Cc1ccn2c(Nc3c(C)cccc3C)c(-c3ccc(Cl)s3)nc2c1 | -16% | -11%
NCCCC[C@H]1CNC(=O)C(=O)N1CC1CCCCC1 | i | -12%
CCc1nnc2c3ccccc3nc(N3CCN(c4cc(C)ccc4C)CC3)n12 | -12% | -6%
N#Cc1ccc(S(=O)(=O)N2CCN(C(=O)[C@@H]3CCCN3C(=O)c3cccs3)CC2)cc1 | i | -16%
Cc1nn2c(=O)cc(CSc3ccccc3NC(=O)c3ccccc3)nc2s1 | -10% | -10%
CC1(C)CC(=O)C2=C(C1)N(CCN1CCOCC1)C1=C(C(=O)CC(C)(C)C1)C2c1ccc(Cl)cc1 | -3%[7.34 µM] | 4%[7.34 µM]
C=CCNC(=O)Nc1ccc(F)cc1F | i | -19%
CC1CCCC(NC(=O)c2n[nH]c(=O)c3ccccc23)C1C (configuration not stated) | ? | -8%
CCC(CC)c1nnc(NC(=O)CCN2C(=O)c3ccccc3C2=O)s1 | nt | -9%
COCCNC(=O)c1nn(-c2ccc(Cl)cc2)nc1CO | 2% | 0%
CCC(C)NC(=O)C1CCC(CNS(=O)(=O)c2cccc3nsnc23)CC1 (configuration not stated) | -11%&-13% | 3%&8%
O=C(O)CC12CC3CC(C1)CC(n1ncc(NCc4ccccc4)c(Cl)c1=O)(C3)C2 | -13% | -6%
Cc1ccc(NC(=O)CN2CCCN(Cc3cc(C)ccc3C)S2(=O)=O)c(Cl)c1 | -14% | -11%
COc1ccc(-c2cc(=O)c3ccccc3n2C)cc1 | -15% | -19%
CC(C)(C#N)NC(=O)C1CCCN1S(=O)(=O)c1ccc2ccccc2c1 (configuration not stated) | -29% | -16%
CCN(C(=O)COC(=O)c1cnc(C)cn1)C1CCCCC1 | -2% | 3%
O=C(N/N=C/c1ccco1)c1cc([N+](=O)[O-])cc([N+](=O)[O-])c1 | i | -6%
CCOC(=O)c1sc(NC(=O)/C=C/c2ccc(F)cc2)nc1C | i | 1%
N#Cc1ccccc1Sc1ccccc1C(=O)Nc1ccccc1 | nt | ?
CCC(=C/c1sc2ccc3ccccc3c2[n+]1C)/C=C1\Sc2ccc3ccccc3c2N1C | 311%[activator] | 25%
COc1ccc(Nc2nc(N(C)c3ccccc3)nc(N)c2[N+](=O)[O-])cc1 | -16% | -4%
CC1=C(C(=O)OCC(C)C)C(c2ccsc2)C2=C(CCCC2=O)N1 (configuration not stated) | -1% | -16%
O=S1(=O)CCOCCCN1Cc1ccc(Cl)cc1 | -12% | -18%&-14%
COc1cccc(CN(C(=O)CN2C(=O)c3ccccc3S2(=O)=O)C(C(=O)NCC2CCCO2)c2ccco2)c1 (configuration not stated) | i | -11%
COc1ccccc1N1CCN(CCCCNC(=O)c2ccc3ccccc3c2)CC1 | i | -11%
Cc1ccc2cccc(N)c2n1 | -13% | -2%
COc1cccc(C(=O)NNC(=O)c2ccc3ccccc3c2)c1 | -17% | -17%
Cc1cccc(NC2SC(=O)N(CC(=O)O)C2=O)c1 (configuration not stated) | -4% | -9%
CN1CCN(Cc2c(O)ccc3cc(-c4ccc(Cl)cc4)c(=O)oc23)CC1 | -15%[7.34 µM] | -7%[7.34 µM]
Cc1ccc(N(CC(=O)N2CCCCCC2)S(=O)(=O)c2ccccc2)cc1 | -13% | -6%
Cc1cccc(-c2nnc(SCC(=O)O)n2Cc2ccccc2)c1 | i | -18%

Not a retest: entries from further up.
SMILES | VACV mCherry inh | VACV Venus inh
O=C(O)CC12CC3CC(C1)CC(n1ncc(NCc4ccccc4)c(Cl)c1=O)(C3)C2 | -13% | -6%
Cc1ccc(NC(=O)CN2CCCN(Cc3cc(C)ccc3C)S2(=O)=O)c(Cl)c1 | -14% | -11%
COc1ccc(-c2cc(=O)c3ccccc3n2C)cc1 | -15% | -19%
CC(C)(C#N)NC(=O)C1CCCN1S(=O)(=O)c1ccc2ccccc2c1 (configuration not stated) | -29% | -16%
CCN(C(=O)COC(=O)c1cnc(C)cn1)C1CCCCC1 | -2% | 3%
O=C(N/N=C/c1ccco1)c1cc([N+](=O)[O-])cc([N+](=O)[O-])c1 | i | -6%
CCOC(=O)c1sc(NC(=O)/C=C/c2ccc(F)cc2)nc1C | i | 1%
N#Cc1ccccc1Sc1ccccc1C(=O)Nc1ccccc1 | nt | ?
CCC(=C/c1sc2ccc3ccccc3c2[n+]1C)/C=C1\Sc2ccc3ccccc3c2N1C | 311%[activator] | 25%
COc1ccc(Nc2nc(N(C)c3ccccc3)nc(N)c2[N+](=O)[O-])cc1 | -16% | -4%
CC1=C(C(=O)OCC(C)C)C(c2ccsc2)C2=C(CCCC2=O)N1 (configuration not stated) | -1% | -16%
O=S1(=O)CCOCCCN1Cc1ccc(Cl)cc1 | -12% | -18%&-14%
COc1cccc(CN(C(=O)CN2C(=O)c3ccccc3S2(=O)=O)C(C(=O)NCC2CCCO2)c2ccco2)c1 (configuration not stated) | i | -11%
COc1ccccc1N1CCN(CCCCNC(=O)c2ccc3ccccc3c2)CC1 | i | -11%
Cc1ccc2cccc(N)c2n1 | -13% | -2%
COc1cccc(C(=O)NNC(=O)c2ccc3ccccc3c2)c1 | -17% | -17%
Cc1cccc(NC2SC(=O)N(CC(=O)O)C2=O)c1 (configuration not stated) | -4% | -9%
CN1CCN(Cc2c(O)ccc3cc(-c4ccc(Cl)cc4)c(=O)oc23)CC1 | -15%[7.34 µM] | -7%[7.34 µM]

Remaining list, next part.
SMILES | VACV mCherry inh | VACV Venus inh
COC(=O)[C@]1(C)N[C@H](CN(C)S(=O)(=O)c2ccc(F)cc2)[C@@H]2C(=O)N(C)C(=O)[C@@H]21 | i | -3%
CN(C)c1cccc(C(=O)OCC(=O)c2ccc[nH]2)c1 | -13% | -3%
CCCN1CCC(NC(=O)CCc2nnc(Cc3cc(OC)ccc3OC)o2)CC1 | i | -7%
CC(=O)N1CCN(c2ccc(S(=O)(=O)N3CCCCC3)cc2[N+](=O)[O-])CC1 | -11% | -23%
CCOC(=O)c1ccc(NC(=O)c2cnc(N3CCCC3)nc2C)cc1 | 12% | 1%
COCCCNC(=O)Cc1ccc(S(=O)(=O)N2CCOCC2)s1 | -6% | -14%
CCCC1NC(=O)c2cccnc2-n2c1nc1ccc(Cl)cc1c2=O (configuration not stated) | 0% | -9%
COc1ccc(S(=O)(=O)NC(C)C(=O)NCc2ccccn2)cc1Cl (configuration not stated) | 0% | -17%
CCn1c(SCC(=O)NC2CCCC2)nc2c(c1=O)SCC2 | -2% | -13%
O=c1oc(C2(O)CCCCC2)cc2ccccc12 | 5% | -13%
COc1ccc(/C=N/Nc2cc(C)nc(N3CCOCC3)n2)cc1OC | -19% | 8%
COc1ccccc1C(=O)Oc1cc(N)n(S(=O)(=O)c2ccc(C)cc2)n1 | ? | -29%
O=C(O)C1CCC(CNCc2ccncc2)CC1 (configuration not stated) | i | -4%
CCOC(=O)C1=C(O)/C(=C/c2cc(OC)c(O)c(OC)c2)SC1=Nc1ccc(OC)cc1 | -22% | 24%
CCOc1c(Br)cc(C2C=C(C(=O)O)Nc3ncnn32)cc1OC (configuration not stated) | -2% | 7%
CC(C)(C)c1cc2nc(N)nc(N)n2n1 | -10% | -28%
c1ccc2sc(SN3CCOCC3)nc2c1 | nt | -2%
COC(=O)C(N)Cc1ccc(OC)c([N+](=O)[O-])c1 (configuration not stated) | i | 0%
CCCCN(CC)C(=O)c1c[nH]c2ccc(S(=O)(=O)N(C)c3ccc(Cl)cc3)cc2c1=O | 2% | -3%
CC(C)c1nc(-c2ccc([N+](=O)[O-])cc2)cs1 | i | -12%
COC(=O)c1sc2nc(C)cc(C)c2c1N | -15% | 3%
Nc1cc(=O)[nH]c(=O)n1CC1CC1 | i | -2%
CC(=O)c1sc(NC(=O)C2=NN(c3ccccc3)C(=O)CC2)nc1C | 9% | 1%
CCc1ccccc1NC(=O)COCc1cc(-c2ccco2)on1 | -13% | -6%
Cc1nn(Cc2ccccc2)c(C)c1NC(=O)CSc1nc2sc3c(c2c(=O)n1C)CCC3 | 18% | -7%
CC1(C(=O)NS(=O)(=O)c2ccc(F)cc2F)CCN1C(=O)C1(c2ccc(Cl)cc2)CCC1 (configuration not stated) | i | 4%
Cc1cc(NC(=O)CSCC(=O)OC(C)C(=O)c2cc(C)c(C)cc2C)no1 (configuration not stated) | i | -15%
CCOC(=O)C1(Cc2ccc(OC)cc2)CCN(C(=O)CCc2cccnc2)CC1 | i | -17%
CCN1C(=O)[C@H]2[C@@H](c3ccc(-c4ccc(OC)cc4)c(OC)c3)N[C@@](Cc3ccccc3)(C(=O)OC)[C@H]2C1=O | ? | -30%
Cc1ccc(C(=O)OCCn2cc(C#N)c(=O)[nH]c2=O)cc1 | i | -18%
Cc1cc(C)n(CCc2nc3c4ccccc4nc(N4CCN(c5ccc(F)cc5)CC4)n3n2)n1 | -20% | -10%
CCN(C(=O)COC(=O)CCc1ccccc1)c1ccccc1 | i | -9%
Cn1c(=O)n(C)c2cc([N+](=O)[O-])c(N3CCN(C(=O)c4cccc(F)c4)CC3)cc21 | -27% | -17%
Cn1c(SCc2cccnc2)nnc1-c1c[nH]c2ccccc12 | -2% | -2%
CC(C)c1ccc(NC(=O)c2n[nH]c(=O)c3ccccc23)cc1 | i | -6%
CCOc1ccccc1NC(=O)C1CCCCN1S(=O)(=O)c1ccccc1 (configuration not stated) | -20% | -20%
CC(C)CCNC(=O)C1CCN(c2nc3ccc(Cl)cc3[nH]2)CC1 | i | -17%
CC(=O)N1CCN=C1SCc1ccccc1 | 13% | -4%
CCOCCCNC(=O)CN1C(=O)C(CC)Oc2ccccc21 (configuration not stated) | i | -5%
COc1ccc2c(c1)C(=O)N1[C@H]3c4cc(Cl)ccc4OC[C@@H]3[C@H](c3ccccc3)[C@]1(C)C(=O)N2 | ? | ?
C#CCOCCOCCOCCNc1nc(N2CCN(C(=O)[C@H](CC(N)=O)n3cc(C(N)[C@@H](C)CC)nn3)CC2)nc(N2CCN(C(=O)[C@H](CCC(=O)O)n3cc([C@@H](N)CCCCN)nn3)CC2)n1 (some centres not stated) | -20% | 0%
COc1ccccc1NC(=O)C(=O)NCc1ccccc1Cl | -16% | -19%
CCc1ccc(NC(=O)c2ccc(F)c(S(=O)(=O)N3CCc4ccccc4C3)c2)cc1 | ? | ?
N#Cc1c(NC(=O)C2CC2)sc2c1CCCCC2 | -24% | -16%
Clc1cccc(-n2ncc3c(N4CCN(Cc5ccccc5)CC4)ncnc32)c1 | -3% | 1%
Cc1cc(S(=O)(=O)Nc2ccc(C(=O)NCCN3CCOCC3)cc2)ccc1F | -14% | 1%
COc1ccc(C(=O)NNC(=O)c2ccccc2[N+](=O)[O-])cc1[N+](=O)[O-] | -1% | -11%
COc1ccc(CCN(C)C(=O)c2cc(S(=O)(=O)N3CCCCCC3)ccc2OC)cc1OC | -12% | -8%

Assay outcomes (PubChem BioAssay)
